KCNQ2 enhance = KCNQ2 (rat) channel potentiation. O88943. CHO-K1 KCNQ2, FluxOR thallium flux fluorescence; stronger effect = higher value. B-score at 10 µM. actives 0.54% (n = 310,000);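 active = fluorescence ratio B-score at least 3 SD of library B-scores, with initial fluorescence B-score within 3 SD, cut at about 5.3 in these data; same plate scores as AID 2156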;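 also: B-score of peak minus minimum over baseline fluorescence ratio after K+ and Tl+ stimulus; positive B-score means potentiation of KCNQ2 with more thallium influx and brighter signal; only the inactives scoring about 0 or higher are listed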
Target sequence (O88943 whole entry, looked up): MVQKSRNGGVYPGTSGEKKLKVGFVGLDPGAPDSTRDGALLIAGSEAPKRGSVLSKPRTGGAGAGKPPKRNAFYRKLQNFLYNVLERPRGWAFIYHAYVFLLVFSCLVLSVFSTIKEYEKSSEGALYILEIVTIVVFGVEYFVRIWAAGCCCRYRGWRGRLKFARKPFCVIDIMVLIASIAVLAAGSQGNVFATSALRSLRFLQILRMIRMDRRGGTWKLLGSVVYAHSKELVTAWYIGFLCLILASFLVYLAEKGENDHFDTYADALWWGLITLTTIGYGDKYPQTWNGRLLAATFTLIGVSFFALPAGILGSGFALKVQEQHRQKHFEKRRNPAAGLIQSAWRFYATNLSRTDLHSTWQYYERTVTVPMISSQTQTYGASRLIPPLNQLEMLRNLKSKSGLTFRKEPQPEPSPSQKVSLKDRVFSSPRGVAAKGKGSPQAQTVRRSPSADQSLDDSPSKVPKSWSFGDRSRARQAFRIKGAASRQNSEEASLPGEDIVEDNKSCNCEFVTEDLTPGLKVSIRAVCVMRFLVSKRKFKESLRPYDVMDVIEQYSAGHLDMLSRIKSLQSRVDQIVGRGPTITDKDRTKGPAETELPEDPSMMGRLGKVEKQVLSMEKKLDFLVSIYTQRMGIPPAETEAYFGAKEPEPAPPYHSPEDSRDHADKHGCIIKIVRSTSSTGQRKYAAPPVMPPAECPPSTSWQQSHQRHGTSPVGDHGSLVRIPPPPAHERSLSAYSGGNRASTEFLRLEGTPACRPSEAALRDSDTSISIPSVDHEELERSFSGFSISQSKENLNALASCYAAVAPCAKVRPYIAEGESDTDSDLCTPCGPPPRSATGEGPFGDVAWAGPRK
KCNQ2 enhance baseline = second read-out of KCNQ2 enhance, no call of its own (marks repeat the call); B-score; compound at 10 µM; measured here: initial fluorescence intensity artifact check;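 brightness before thallium and not channel activity; 0 = typical well and far values either way flag optical interference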
Starred values were filed as active, the others as inactive.

The line under a structure holds: KCNQ2 enhance	KCNQ2 enhance baseline
COc1ccc(C(=O)Nc2ccc(Cl)c(S(=O)(=O)Nc3ccccc3OC)c2)cc1
→ 0.8	-0.45
COCCn1c(SCC(=O)NCc2ccco2)nnc1-c1c[nH]c2ccccc12
→ 0.31	2.1
O=C(CNc1ccccc1)N/N=C/c1ccc2c(c1)OCCO2
→ 1	-1.2
NC(=O)CSc1nnc2ccc(-c3ccc(Cl)cc3)nn12
→ 0.51	-0.21
O=C(COC(=O)/C=C/c1ccc2c(c1)OCO2)Nc1ccc(S(=O)(=O)N2CCCC2)cc1
→ 1.1	1.6
O/N=C1\CCCc2ccc(Cl)cc21
→ 0.13	0.01
CCOc1ccccc1NC(=O)C1CCCN(S(=O)(=O)c2ccccc2)C1 (configuration not stated)
→ 0.03	-1.6
COc1cccc(OC)c1OCCNCC1CSc2ccccc2O1 (configuration not stated)
→ 0.3	-0.33
CCOc1ccccc1N1CCN(CC(O)COCc2cccs2)CC1 (configuration not stated)
→ 1.4	-1.3
CN(C)C(CNC(=O)c1coc2ccccc2c1=O)c1ccccc1 (configuration not stated)
→ 0.73	-0.16
CC(=O)c1ccc(N=Cc2c(O)n(-c3cc(Cl)ccc3N3CCOCC3)c(=O)c3ccccc23)cc1
→ 0.81	-0.45
CCCCN(CCCC)c1nc(OC)nc(-n2nnc(C(C)=O)c2C)n1
→ 8*	-0.81*
Cc1cccc(NC(=O)CSc2nc3nc(C)cc(C)c3c(=O)[nH]2)c1
→ 1.1	-0.14
COc1ccc2c(c1)nc(SCC(=O)C(C)(C)C)n2C
→ 0.28	-0.74
COc1ccc(CCN(C)C(=O)c2ccc(S(=O)(=O)Nc3ccccc3C)cc2)cc1OC
→ 0.8	-0.02
COC(=O)Cc1cc(=O)oc2c(C)c(O)ccc12
→ 0.01	-1.9
COc1ccc(-c2cc(C(=O)NC(Cc3c[nH]c4ccccc34)C(=O)O)c(C)o2)cc1OC (configuration not stated)
→ 0.12	1.1
O=C(CN1CCN(C2CCCCC2)CC1)Nc1cccc2ccccc12
→ 0.18	-1.2
O=C(O)/C(=C\c1ccc(Br)cc1)c1ccc(S(=O)(=O)N2CCCCC2)s1
→ 1.4	-1.4
Cc1nn(C)c(C)c1S(=O)(=O)Nc1ccc2c(c1)OCO2
→ 1.3	-0.66
COc1cc(CNCc2ccccn2)ccc1OCc1c(Cl)cccc1Cl
→ 0.47	0.07
O=C(NC1CCCCC1)C1CCC(CNS(=O)(=O)c2cccc3nsnc23)CC1 (configuration not stated)
→ 0.2	0.2
COC(=O)COn1c(SCC(=O)OC)nc2ccccc2c1=O
→ 3.8	1.2
COc1ccc(S(=O)(=O)Cc2ccc(C(=O)N3CCN(c4ccccn4)CC3)o2)cc1
→ 2.3	-1.2
Cc1cc2c(=O)n(CC(=O)N3CCN(c4ccc(F)cc4)CC3)cnc2s1
→ 0.79	0.57
CC1=NCCN1S(=O)(=O)c1cc([N+](=O)[O-])ccc1Cl
→ 0.94	-0.6
O=C(CSc1nccn1Cc1ccccc1)Nc1ccccc1
→ 2.1	-1.2
O=C(CSc1nncn1-c1cccnc1)Nc1ccccc1[N+](=O)[O-]
→ 0.51	0.59
CCCCCC1=CCC/C1=N\NC(=O)c1ccc2c(c1)OCO2
→ 1.4	-2.1
Cc1ccc(CNC(=O)CN2C(=O)COc3ccc(C)cc32)cc1
→ 0.6	-1.1

Profiles, looked up by structure.
COc1ccc(C(=O)Nc2ccc(Cl)c(S(=O)(=O)Nc3ccccc3OC)c2)cc1 is entered as KCNQ2 enhance: 0.8; KCNQ2 enhance baseline: -0.45
CC(=O)c1ccc(N=Cc2c(O)n(-c3cc(Cl)ccc3N3CCOCC3)c(=O)c3ccccc23)cc1 is entered as KCNQ2 enhance: 0.81; KCNQ2 enhance baseline: -0.45

Random excerpt: 3 entries already listed, in no set order.
The line under a structure holds: KCNQ2 enhance	KCNQ2 enhance baseline
O=C(CNc1ccccc1)N/N=C/c1ccc2c(c1)OCCO2
→ 1	-1.2
Cc1nn(C)c(C)c1S(=O)(=O)Nc1ccc2c(c1)OCO2
→ 1.3	-0.66
NC(=O)CSc1nnc2ccc(-c3ccc(Cl)cc3)nn12
→ 0.51	-0.21

New compounds follow:
The line under a structure holds: KCNQ2 enhance	KCNQ2 enhance baseline
CCC(C)(C)n1nnnc1C(c1ccccn1)N1CCOCC1 (configuration not stated)
→ 0.54	0.26
COc1ccccc1Nc1nc(-c2cccnc2)cs1
→ 0.5	0.44
Cc1cccc(-c2nc3ccccc3c(=O)[nH]2)c1
→ 1.5	-0.89
O=C(CCC(=O)OCCCC(F)(F)C(F)(F)F)Nc1ccc(Cl)cc1Cl
→ 0.23	0.01
Brc1csc(/C=N/Nc2nc3ccccc3s2)c1
→ 0.57	1.4
CCN(CC)P(=O)(c1ccccc1)c1c(C)nc2ccccn12 (configuration not stated)
→ 0.16	-1.7
O=C(Nc1ncc(Cc2cccc(C(F)(F)F)c2)s1)C1CCCO1 (configuration not stated)
→ 2.1	-0.67
O=C(NNC1=NS(=O)(=O)c2ccccc21)c1ccc(Cl)cc1
→ 1.4	0.04
COc1ccccc1N(Cc1ccccc1)S(=O)(=O)c1cccc(C(=O)NC2CC(C)(C)NC(C)(C)C2)c1
→ 1.1	-2.1
C/C=C\C=C\C(=O)N1CC2(CC(c3cccc(NC(=O)CC)c3)=NO2)C[C@H]1C(N)=O (some centres not stated)
→ 0.33	0.16
CCCNC(=O)C1CC2Cn3c(nc4ccccc43)C2N1C (configuration not stated)
→ 1.2	-0.99
Cc1cc(=O)n2nc(N3CCC(C(=O)NCc4cccc(Br)c4)CC3)sc2n1
→ 0.28	0.12
Cc1c(NC(=O)c2cccs2)cccc1[N+](=O)[O-]
→ 0.02	-2.3
COc1ccccc1NC(=O)CN1C(=O)COc2ccc(C)cc21
→ 0.5	-1.3
O=C(Nc1cccc(Oc2ccc(C(=O)O)c(C(=O)O)c2)c1)c1ccc(-c2ccccc2)cc1
→ 1.2	-1.9
O=C(CS(=O)c1cccc(C(F)(F)F)c1)Nc1ccc(Cl)cc1Cl (configuration not stated)
→ 0.22	-0.1
CC[C@H](C)[C@@H](C(=O)N1CCNCC1)n1cc([C@@H](N)CC(C)C)nn1
→ 0.8	1.6
Cc1noc(C)c1CCC(=O)N1CCCC(CO)(Cc2ccccc2)C1 (configuration not stated)
→ 0.77	1.7
O=c1c(Cl)c(N2CCN(c3ccc(F)cc3)CC2)cnn1-c1nc2ccccc2s1
→ 0.79	0.63
Cc1nc2ccccn2c1C(=O)NNS(=O)(=O)c1ccc(C(C)(C)C)cc1
→ 0.56	-0.99
O=C(Nc1ccc(N2CCOCC2)cc1)c1cccc2c(Br)cccc12
→ 0.82	0.69
CC(=O)Nc1ccc(C(=O)CSc2nnc(Cn3nnc4ccccc43)n2C)cc1
→ 1.7	-3
CN(C)CCN(Cc1ccccc1)S(=O)(=O)c1ccc(-c2ccc(=O)[nH]n2)s1
→ 0.97	-0.15
COc1ccc2[nH]c(=O)c(CN(CC3CCCO3)S(=O)(=O)c3ccccc3F)cc2c1 (configuration not stated)
→ 0.57	-0.69
CC(C)c1ccc(O)c(N)c1
→ 1.8	-2.5
OCCNCC12CC3CC(CC(C3)C1)C2
→ 0.48	-0.59
CCCC(=O)Nc1ccccc1-c1nnn(CC(=O)Nc2ccc(OCC)cc2)n1
→ 0.64	-0.01
COc1cc2c(cc1OC)C(Cc1ccc(O)cc1)N(C)CC2 (configuration not stated)
→ 1.7	-0.27
COc1ccc(OC(C)C(=O)N2CCOCC2)cc1 (configuration not stated)
→ 1.3	-0.79
CCOc1ccc(NC(=O)N(C2CCCC2)C2CCN(C(C)=O)CC2)cc1
→ 0.59	0.02

Further results.
The line under a structure holds: KCNQ2 enhance	KCNQ2 enhance baseline
Cc1cccc(OCC(O)Cn2c(N3CCCCC3)nc3c2c(=O)[nH]c(=O)n3C)c1 (configuration not stated)
→ 0.92	1.4
Cc1ccc(NC(=O)CCc2ccc(C)o2)c(C)c1
→ 3.2	-1.3
Cc1ccc2cc(CN(C(=O)c3ccncc3)C(C)C)c(=O)[nH]c2c1
→ 1	-2.2
Cc1onc(-c2c(F)cccc2Cl)c1C(=O)NC(=S)NCc1cccnc1
→ 0.72	0.5
CN(C)S(=O)(=O)c1cccc(NC(=O)CCc2c[nH]c3ccccc23)c1
→ 1.9	-0.64
CS(=O)(=O)N1CCN(c2ccc(C(=O)NC3C4CC5CC(C4)CC3C5)cc2[N+](=O)[O-])CC1 (configuration not stated)
→ 1.1	0.05
O=C(CN1C(=O)CSC1=O)Nc1ccc2c(c1)OCCO2
→ 0.48	-2.1
c1ccc(CN2C3=NCCN3c3ccccc32)cc1
→ 1.1	-0.74
COC(=O)c1cn(NC(=O)c2cc(OC)cc(OC)c2)c(=O)c2ccccc12
→ 0.43	0.05
CCCCC[n+]1ccn(C2=C([O-])c3ccccc3C(=O)/C2=N\S(=O)(=O)c2ccc(Br)cc2)c1
→ 0.48	0.79
CC(=O)Nc1sc(NC(=O)c2ccc(C)cc2)nc1-c1cccs1
→ 1.6	-0.14
O=C(NCCCN1CCOCC1)c1ccc(Cl)cc1Cl
→ 0.88	1.4
Cc1ccc(S(=O)(=O)N(C)CCCC(=O)Nc2cccc3ccccc23)cc1
→ 0.28	0.54
OCCC1CN(C2CCC2)CCN1Cc1ccc(F)c(F)c1 (configuration not stated)
→ 0.07	1.2
COc1cc(N)c(Cl)cc1NC(=O)c1ccccc1
→ 2.1	-0.49
Cc1csc(NC(=O)CSc2nc3ccccc3c(=O)[nH]2)n1
→ 0.88	0.2
COc1ccc(-c2ccc(SCC(=O)Nc3cc(C)on3)nn2)cc1OC
→ 0.81	-1.2
CCOc1ccc2nc(NC(=O)CS(=O)(=O)c3ccc(C)cc3)sc2c1
→ 0.49	-0.01
CCCNCC(O)Cn1c2ccccc2n2c(=O)cc(C)c(C#N)c12 (configuration not stated)
→ 0.95	1
C/C(CC(=O)Nc1cc(C)cc(C)c1)=N\NC(=O)c1ccccn1
→ 0.8	0.11
CC(C)c1ccccc1NC(=O)C1C2C=CC(C2)C1C(=O)O (configuration not stated)
→ 1.5	0.77
COC(=O)C1CN(C(=O)C(C)Oc2ccc(C)c(C)c2)c2ccccc2O1 (configuration not stated)
→ 0.35	0.72
CC(=O)NNC(=O)CCC(=O)Nc1ccccc1
→ 0.01	-1.2
Cc1cc(C)nc(N2N=C(C(C)(C)C)CC2=O)n1
→ 0.16	-1.6
Cc1ccc(C(=O)Nc2nc(N)n(-c3ccccc3)n2)cc1
→ 0.66	0.78
CCCn1nc2cc(C(=O)NCc3ccc(OC(F)(F)F)cc3)ccc2c1OCC
→ 0.27	0.79
CC1CCCCN1C(=O)COC(=O)C1CCN(S(=O)(=O)c2ccc3c(c2)OCCO3)CC1 (configuration not stated)
→ 0.01	0.43
CCOc1ccc(NC(=O)C(C)Sc2nccn2C)cc1 (configuration not stated)
→ 0.57	-0.35
C=CCN1C(=O)CN=C1Nc1ccc(F)cc1
→ 0.69	-0.36
O=C(COc1ccc(Cl)cc1)Nc1ccc2oc(-c3ccncc3)nc2c1
→ 0.71	-2.1

(continued)
The line under a structure holds: KCNQ2 enhance	KCNQ2 enhance baseline
O=S(=O)(NC1=NCCCCCC1)c1cccs1
→ 1.7	-0.8
O=c1c2cc(Br)cc(Br)c2oc2nc3n(c(=O)c12)CCCS3
→ 2.5	-0.4
CC1CC(C)CN(C(=O)c2ccc(S(=O)(=O)N3CCCC3)cc2)C1 (configuration not stated)
→ 0.4	-0.18
Cc1ccc(N2C(=O)N(CC(=O)Nc3ccc(F)c(F)c3)C(=O)C2C)cc1 (configuration not stated)
→ 0.82	-0.13
CCN(C(=S)Nc1cccnc1)c1ccccc1
→ 0.56	-0.54
CN(Cc1ccccc1)C(=O)Cn1c(=O)oc2cc(S(=O)(=O)N3CCCC3)ccc21
→ 0.78	1.6
Cc1ccc2[nH]c(=O)c(CN(Cc3cccs3)C(=S)NCC3CCCO3)cc2c1 (configuration not stated)
→ 1.8	-0.32
O=C(NCc1ccccc1Cl)C1CCN(S(=O)(=O)N2CCOCC2)CC1
→ 0.03	-0.78
O=C(Nc1cccc2ncccc12)c1cc([N+](=O)[O-])ccc1Cl
→ 1.4	0.67
O=C(O)Cn1nnnc1SCC(=O)Nc1ccc(F)cc1F
→ 0.09	1.6
O=C(COC(=O)CCC(=O)c1ccc(F)cc1)Nc1cccc(S(=O)(=O)N2CCOCC2)c1
→ 1.8	0.64
CCc1ccc(C(=O)NNC(=O)c2c(CC)noc2C)cc1
→ 1.1	-0.21
O=C(CCNC(=O)c1ccccc1Cl)Nc1ccccc1N1CCCC1
→ 1.1	-0.01
CCOC(=O)CCCNC(=O)CSc1nc2ccc(OCC)cc2[nH]1
→ 1.6	-1.2
CC(NC(=O)c1cc(Br)ccc1Cl)c1ccccc1 (configuration not stated)
→ 0.77	0.23
Cc1ccc(OCc2ccc(C(=O)NCc3cccnc3)cc2)cc1C
→ 1.1	-2.2
COc1ccc2nc(SCC(=O)Nc3cc(C)on3)c(C#N)cc2c1
→ 1.4	-0.78
COc1cccc(NC(=O)CN2C(=O)COc3ccc(S(=O)(=O)N4CCC(C)CC4)cc32)c1
→ 1.1	0
Cc1cc(C)c(NC(=O)CSc2nnc(-c3ccncc3)n2Cc2ccco2)c(Cl)c1
→ 0.06	-0.01
CN(C)C(=O)CSc1nnc(-c2ccc(S(=O)(=O)N3CCCC3)cc2)n1C
→ 0.73	0.03
NC(=O)c1cc(Cl)ccc1OCC(=O)N1CCCc2ccccc21
→ 0.17	-1.1
Cn1c(N)c(C(=O)COC(=O)CSc2ccc(Cl)cc2)c(=O)n(C)c1=O
→ 2	1.9
Cc1ccc(S(=O)(=O)Cn2nnnc2C(C(C)C)N2CCN(C(=O)c3ccco3)CC2)cc1 (configuration not stated)
→ 0.11	-0.18
COc1ccc(/C=C/C(=O)O/N=C(\N)c2cccnc2)cc1OC
→ 1.1	-3.1
COCCCNC(=O)CC(NS(=O)(=O)c1ccc(Cl)cc1)c1ccc(OC)cc1 (configuration not stated)
→ 0.29	-0.46

These rows are one share of the data; count on the stated rates, not on these rows.
